# Assay outcomes as filed in PubChem.
# INS promoter inh = inhibitors of insulin promoter-driven GFP, primary screen, imaging, TRM-6 cells (human fetal islet line), eGFP reporter, cell count; reporter expression induced with tamoxifen; inhibition, % at 2 µM; actives 0.9% (n = 130,000);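 active = inhibition above the mean plus 3 SD, with well images judged a real hit on visual review, cut at about 60% in these data, passing the limit was not always enough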
# RGS16-Gao = modulators of RGS16 binding to Galphao, primary screen, biochemical, human proteins, multiplexed bead flow cytometry | Regulator of G-protein signaling 16 (Homo sapiens) + Guanine nucleotide-binding protein … | binding response (% of control), % at 10 µM | bead-based flow cytometry RGS16-Galphao binding, fluorescence; actives lie on both sides | actives 0.38% (n = 220,000);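 active = below 25% or above 175%, edge rows of some plates excepted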;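 also: Galphao activated by GDP with aluminum fluoride before binding; 100% = wells without compound and 0% = beads without RGS; some results beyond the cut were filed as inactive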
# Target sequence (O15492 whole entry, looked up): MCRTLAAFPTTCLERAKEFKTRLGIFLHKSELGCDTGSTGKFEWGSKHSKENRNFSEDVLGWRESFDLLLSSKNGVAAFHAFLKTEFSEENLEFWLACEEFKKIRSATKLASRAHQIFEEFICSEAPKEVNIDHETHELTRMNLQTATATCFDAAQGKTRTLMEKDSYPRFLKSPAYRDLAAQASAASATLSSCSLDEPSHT
# Target sequence (P09471 whole entry, looked up): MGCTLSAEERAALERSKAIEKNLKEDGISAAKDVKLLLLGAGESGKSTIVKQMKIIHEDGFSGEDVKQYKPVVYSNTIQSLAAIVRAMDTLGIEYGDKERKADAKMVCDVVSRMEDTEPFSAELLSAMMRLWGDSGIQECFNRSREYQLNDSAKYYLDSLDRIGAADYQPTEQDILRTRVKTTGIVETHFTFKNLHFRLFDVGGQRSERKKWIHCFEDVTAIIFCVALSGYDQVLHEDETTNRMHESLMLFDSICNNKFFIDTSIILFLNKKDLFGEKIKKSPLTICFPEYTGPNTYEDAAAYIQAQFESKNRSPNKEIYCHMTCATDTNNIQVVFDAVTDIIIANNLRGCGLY
# HSV replic up = enhancers of HSV replication in host cells, fold increase, host cell viability; HSV replication augmentation in cells; maximum fold increase; actives 0.005% (n = 220,000);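 active = peak rise of 1.5-fold or more in the series; tested in PC3 cells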;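 also: first round at 10 µM; read as green reporter fluorescence; hits show the peak of a series up to 25 µM; 1 = signal of infected wells without compound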
# GALR2 ag = GALR2 receptor agonists, primary screen, cell-based; Galanin receptor type 2 (Homo sapiens), O43603; GALR2-expressing cells, agonist activation read-out; activation, %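 (tested at 5 µM)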; actives 0.48% (n = 140,000);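 active = above mean plus 3 SD of all compounds, about 5% in these data, not always enough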;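 also: 0% = vehicle buffer wells and 100% = reference agonist at full effect; tested in CHO reporter cells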
# Target sequence (O43603 whole entry, looked up): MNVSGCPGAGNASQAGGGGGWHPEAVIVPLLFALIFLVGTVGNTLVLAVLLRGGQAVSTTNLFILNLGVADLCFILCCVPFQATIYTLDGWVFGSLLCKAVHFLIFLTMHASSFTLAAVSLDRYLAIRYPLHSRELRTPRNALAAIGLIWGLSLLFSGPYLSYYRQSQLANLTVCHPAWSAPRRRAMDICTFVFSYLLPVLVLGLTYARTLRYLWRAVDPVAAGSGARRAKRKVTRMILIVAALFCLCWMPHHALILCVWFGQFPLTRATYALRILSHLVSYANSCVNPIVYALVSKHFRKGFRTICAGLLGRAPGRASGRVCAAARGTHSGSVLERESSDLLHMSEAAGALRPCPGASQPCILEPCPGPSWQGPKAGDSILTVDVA
# PKD1 kinase inh = inhibitors of human PKD1 kinase, biochemical, fluorescence polarization; inhibition, %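 (about 10 µM by stock and volumes)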; actives 0.056% (n = 200,000); Serine/threonine-protein kinase D1 (Homo sapiens), Q15139; PKD1 kinase fluorescence polarization assay;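 active = inhibition of 50% or more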;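 also: controls were vehicle for no effect and a reference inhibitor for full effect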
# INS promoter inh cell count = also measured in INS promoter inh; calls as there; normalized cell count, %; measured here: cell count, toxicity; reference of the scale not given here;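 cells exposed to compound for 48 h; stained nuclei by imaging scaled within each plate; lower means fewer cells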
# HSV replic up primary fold = further read-out of HSV replic up, marked with its call; fold increase; compound at 10 µM; measured here: primary screen fold increase 10 uM; tested in PC3 cells;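 GFP signal in the first replicate; 1 = infected wells without compound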
# An asterisk follows results filed as active; i = inactive; nt = not tested or not shown.
SMILES,INS promoter inh,INS promoter inh cell count,RGS16-Gao,HSV replic up,HSV replic up primary fold,GALR2 ag,PKD1 kinase inh
COc1ccc(OC)c(N2C(=O)CC(Cc3cc(C)cc(C)c3)C2=O)c1 (stereo not drawn),-243,121,108,i,0.99,-2.8,4
Cc1ccc(NC(=O)c2cnc3ccccc3n2)cc1C,nt,nt,105,i,0.85,nt,nt
COc1cc2cc(Oc3ccc4ccc(=O)oc4c3)c(=O)oc2cc1O,-19,93,101,i,1.1,0.1,-13
Cc1ccc2nc(Nc3nc(C)cc(C(F)(F)F)n3)nc(C)c2c1,-50,98,123,i,0.89,-1.7,-16
O=C(Nc1ccc(F)cc1)c1sc2cc(C(F)(F)F)cnc2c1-c1cccs1,48,109,101,i,0.99,0.5,5
CC(C)[C@H](NC(=O)Nc1cccc(C(F)(F)F)c1)C(=O)O,nt,nt,102,i,1,-0.2,-1
CC(C)(C)c1ccc(-c2nnc(N)o2)cc1,nt,nt,102,i,0.92,nt,nt
COc1cc(/C=C(\C#N)C(=O)c2c(C)[nH]c3ccccc23)cc(OC)c1OC,nt,nt,105,i,1.1,-0.3,2
O=C(/C=C/c1ccc2c(c1)OCCCO2)c1ccccc1O,-40,105,105,i,0.91,-0.3,6
Cc1ccc(-c2nnc(SCC(=O)N/N=C/c3c(C)nn(-c4ccccc4)c3C)n2-c2ccccc2)cc1,nt,nt,100,nt,nt,0.4,-7
O=[n+]1c2c(n([O-])c3ccccc31)CCCC2,nt,nt,103,i,1.1,-1.8,5
Cc1ccc(S(=O)(=O)N2CCCOC2CNC(=O)C(=O)NCCCn2ccnc2)cc1 (stereo not drawn),20,105,104,i,1.1,-1.6,-22
CCCNC(=O)NC(=O)CSc1ccc2c(c1)OCCO2,3,71,98,i,1,-2.1,0
C=CC[n+]1c(/C=C2\C=Cc3cc(C)ccc3N2CC)ccc2ccccc21,-413,34,107,nt,nt,nt,0
COc1cc(-c2noc(CCCC(=O)NCc3ccco3)n2)cc(OC)c1OC,-295,59,97,i,0.96,-1.6,-5
O=C(Oc1coc(CSc2nnc(NC(=O)C3CC3)s2)cc1=O)c1ccccc1,nt,nt,119,i,1.2,-1.0,-4
CCc1cc2c(cc3c(=O)n(CC(=O)NCCCN4CC(C)CC(C)C4)ncn32)s1 (stereo not drawn),nt,nt,105,i,0.98,-2.7,1
O=c1c2ccccc2c(C=Nc2cccc(S(=O)(=O)NCc3ccco3)c2)c(O)n1-c1ccc(Cl)cn1,nt,nt,101,i,0.95,-0.5,-2
CC1(C2CC2)NC(=O)NC1=O (stereo not drawn),-17,114,104,i,0.95,-2.7,-7
Cc1cc(NC(=O)CCCn2nc(C)c([N+](=O)[O-])c2C)no1,45,111,103,i,0.99,nt,-1
CCCCCC(=O)NC(NC(=S)NC1CCS(=O)(=O)C1)C(Cl)(Cl)Cl (stereo not drawn),29,109,77,i,0.77,-0.8,-1
Cc1cc(C)cc(-n2c(C)nc3cc(C(=O)O)ccc32)c1,nt,nt,102,i,0.95,nt,7
Fc1ccc(-c2ccnc3nc(N4CCN(c5ccccc5)CC4)nn23)cc1,-2,125,96,i,0.88,-2.0,-3
O=C1c2cccc3c([N+](=O)[O-])c(O)cc(c23)C(=O)N1Nc1ccccc1,nt,nt,106,i,1.3,nt,-5
COc1ccc(C2NC(=S)NC(C)=C2C(=O)c2ccccc2)cc1OC (stereo not drawn),nt,nt,108,i,1.4,-0.8,-10
CCN(CC)Cc1c(NC(=O)c2ccccc2)sc(C)c1C,20,90,130,i,0.91,nt,0
Cc1cccc(C(=O)N[C@H](C(=O)OCC(=O)NC2CCS(=O)(=O)C2)C(C)C)c1 (stereo partly drawn),0,99,95,i,0.99,-1.8,-1
COc1ccc(-c2nc(CC(=O)O)cs2)cc1,17,114,105,i,0.9,-2.7,-7
Cc1ccc(S(=O)(=O)CCc2nnc(NC(=O)COc3cccc(C)c3)s2)cc1,43,64,119,i,0.93,-0.5,-8
O=C(Nc1cccnc1)c1ccc2c(c1)C(=O)N(CC1CCCO1)C2=O (stereo not drawn),-41,94,94,i,0.98,nt,-4
Cc1cc(C)c(OCC(=O)OCCNC(=O)c2cccnc2)c(C)c1,nt,nt,100,i,0.89,-1.4,2
COCCn1nc2cc(C(=O)NCC34CC5CC(CC(C5)C3)C4)ccc2c1OC,nt,nt,73,i,1.1,-3.8,-5
CC(=O)c1cnc2c(-c3ccccc3)c(C)nn2c1C,54,140,60,nt,nt,-0.8,-8
Cc1ccc(S(=O)(=O)NC(=O)CSc2nc3ccccc3s2)cc1,nt,nt,99,i,1.3,-2.5,11
O=C(/C=C/c1ccc(Cl)cc1)N1CCN(c2ccccn2)CC1,nt,nt,102,i,0.94,-0.9,6
CC(C)(C)NCC(O)COc1c(F)cc(Br)cc1F (stereo not drawn),-26,80,96,i,1.1,0.3,1
CCOc1ccc(NC(=O)CSc2nc(-c3cccs3)cc(C(F)(F)F)n2)c([N+](=O)[O-])c1,-7,148,105,i,0.83,-0.7,0
O=C(c1cccc(S(=O)(=O)N2CCc3ccccc3C2)c1)N1CCN(c2ccccc2)CC1,0,100,111,i,0.83,-2.5,0
COc1ccc(S(=O)(=O)CC(=O)Nc2ccccc2Cl)cc1,0,81,101,i,1,nt,1
COC(=O)c1cc(OC)c(OC)cc1NC(=O)CSc1ccc(C)cc1,-3,108,95,i,0.95,-3.0,9

# Part of the list above, as labelled records.
Structure: CC(=O)c1cnc2c(-c3ccccc3)c(C)nn2c1C
  INS promoter inh = 54; INS promoter inh cell count = 140; RGS16-Gao = 60; HSV replic up = nt; HSV replic up primary fold = nt; GALR2 ag = -0.8; PKD1 kinase inh = -8

Structure: Cc1ccc(S(=O)(=O)NC(=O)CSc2nc3ccccc3s2)cc1
  INS promoter inh = nt; INS promoter inh cell count = nt; RGS16-Gao = 99; HSV replic up = i; HSV replic up primary fold = 1.3; GALR2 ag = -2.5; PKD1 kinase inh = 11

Structure: O=C(/C=C/c1ccc(Cl)cc1)N1CCN(c2ccccn2)CC1
  INS promoter inh = nt; INS promoter inh cell count = nt; RGS16-Gao = 102; HSV replic up = i; HSV replic up primary fold = 0.94; GALR2 ag = -0.9; PKD1 kinase inh = 6

# 5 records picked at random from those above, as already listed:
SMILES,INS promoter inh,INS promoter inh cell count,RGS16-Gao,HSV replic up,HSV replic up primary fold,GALR2 ag,PKD1 kinase inh
COCCn1nc2cc(C(=O)NCC34CC5CC(CC(C5)C3)C4)ccc2c1OC,nt,nt,73,i,1.1,-3.8,-5
Cc1cc(C)c(OCC(=O)OCCNC(=O)c2cccnc2)c(C)c1,nt,nt,100,i,0.89,-1.4,2
COc1ccc(S(=O)(=O)CC(=O)Nc2ccccc2Cl)cc1,0,81,101,i,1,nt,1
Cc1ccc(S(=O)(=O)NC(=O)CSc2nc3ccccc3s2)cc1,nt,nt,99,i,1.3,-2.5,11
CC(C)(C)NCC(O)COc1c(F)cc(Br)cc1F (stereo not drawn),-26,80,96,i,1.1,0.3,1

# Further compounds follow:
SMILES,INS promoter inh,INS promoter inh cell count,RGS16-Gao,HSV replic up,HSV replic up primary fold,GALR2 ag,PKD1 kinase inh
CC(=C1C(=O)c2ccccc2C1=O)N1CCc2ccccc2C1,-23,159,86,i,1,-4.3,-4
CN=c1scc(-c2ccc(F)cc2)n1/N=C/c1ccc(O)c(O)c1,-41,63,89,i,0.66,nt,-9
Cn1cnnc1SCC(=O)c1cccc([N+](=O)[O-])c1,-50,157,75,i,0.87,-1.9,-5
CN(Cc1ccccc1)c1nc2c(c(=O)[nH]c(=O)n2C)n1CCCSc1ncccn1,nt,nt,92,i,0.92,-3.1,-3
CSCC[C@H](NC(=O)OC(C)(C)C)c1nnc(SCc2ccccc2)o1,-4,99,91,i,0.87,-2.7,-6
CCN1CCCC1CNC(=O)C(=O)NC1CC1 (stereo not drawn),nt,nt,88,i,1,nt,-10
CC(C)c1nc(SCC(=O)N2CC(=O)Nc3ccccc32)c2ccccc2n1,nt,nt,99,i,0.86,nt,-1
CSc1ccc(CN2C(=O)NC3(CCCCC3)C2=O)cc1,nt,nt,101,i,0.96,nt,8
COc1ccc([N+](=O)[O-])cc1N(CC(O)CN1CCCCC1)S(=O)(=O)c1ccc(C)cc1 (stereo not drawn),-11,165,104,i,0.91,nt,0
CCOC(=O)C1CCN(C(=O)c2cc3c(=O)n4ccccc4nc3n2C)CC1,nt,nt,100,i,0.94,nt,7
Cc1ncc([N+](=O)[O-])n1CCOC(=O)NC(NCc1ccccc1Cl)C(Cl)(Cl)Cl (stereo not drawn),nt,nt,101,i,1.1,-0.6,0
O=C(c1cccs1)c1coc2ccc(O)c(CN3CCOCC3)c12,12,150,107,i,0.83,1.8,-3
N#Cc1ccccc1NC(=O)Nc1ccc(Cl)cc1,24,98,98,i,0.85,-1.0,-1
O=C(Nc1ccccn1)c1ccc2c(c1)OCO2,nt,nt,104,i,0.99,nt,-1
Cc1cc(NCc2ccccn2)nc2ccccc12,0,159,92,i,0.9,-2.2,-2
C=CCOC(=O)C(C#N)c1nc2ccccc2nc1N1CCN(c2ccccc2OCC)CC1 (stereo not drawn),nt,nt,110,i,1.2,-0.3,0
CN1C(N)=NC(=O)/C1=C/c1ccc(F)cc1,nt,nt,102,i,0.83,nt,nt
CC(C)(CNC(=O)c1ccc(S(=O)(=O)N2CCCC2)cc1)N1CCOCC1,-33,88,101,i,0.96,nt,2
CC1CN(S(=O)(=O)c2ccc(C(=O)Nc3sc4c(c3C(N)=O)CCN(C)C4)cc2)CC(C)O1 (stereo not drawn),nt,nt,104,i,1.1,-1.1,-4
COc1ccc(C2C3=C(Nc4ncnn42)c2ccccc2CCC3)cc1 (stereo not drawn),nt,nt,146,i,1.2,-2.1,1
CC1CCCN(C(=S)NCCc2ccccc2)C1 (stereo not drawn),0,140,101,i,1.1,0.1,-8
C1CCC(NC2=NCCC2)CC1,-76,91,102,i,1.1,-2.3,-8
Cc1ccc(-n2ncc3c(NNC(=O)c4cccs4)ncnc32)cc1,17,106,102,i,0.91,nt,11
COC(=O)c1oc2c(c1C)C(=O)CCC2,nt,nt,102,i,0.92,nt,nt
Cc1ccccc1-n1c(=O)c2c(n3cnnc13)-c1ccccc1CC21CCCCC1,2,119,94,i,0.89,0.1,-10
CC(C)NC(=O)N(Cc1ccccc1)Cc1cccs1,nt,nt,103,i,1.3,nt,nt
Cc1ccc(S(=O)(=O)Nc2ccc3c(c2)nc(C)n3C)cc1,nt,nt,41,i,0.94,nt,nt
O=C(/C=C/c1cccc(O)c1)c1cccnc1,13,56,100,i,1,nt,-3
CCN1CCCC1CN(Cc1cc2cc(OC)ccc2[nH]c1=O)C(=O)NCc1ccccc1 (stereo not drawn),-12,98,100,i,1.1,-1.6,2
O=C(Nc1cccc(Cl)c1)Nc1csc([N+](=O)[O-])c1,nt,nt,91,i,0.69,nt,nt
CS(=O)(=O)c1nc(-c2ccccc2)cc(C(F)(F)F)n1,nt,nt,99,nt,nt,4.5,2
COc1ccc(C2CC(=O)N3C(=C2C#N)SCC3(O)c2ccccc2)cc1 (stereo not drawn),nt,nt,98,i,1,-1.3,-1
CC1=NN(C(=O)Cc2ccc([N+](=O)[O-])cc2)C(O)(c2cccnc2)C1 (stereo not drawn),-4,120,100,i,0.96,-1.2,5
CCN(CC)S(=O)(=O)c1ccc(N2CCOCC2)c(NC(=O)c2cc([N+](=O)[O-])ccc2Cl)c1,nt,nt,100,i,0.59,nt,-2
Cc1cccc(N2CCN(C(=O)CCCn3c(=S)[nH]c4cc5c(cc4c3=O)OCO5)CC2)c1C,0,92,72,nt,nt,-2.7,-4
Cc1nn(C(C)(C)C)c(OC(=O)c2cccs2)c1Sc1ccccc1,56,97,97,i,0.96,-1.9,-4
CC(C)C[C@H](NC(=O)Nc1cccc(Br)c1)C(=O)O,24,168,104,i,1.1,0.6,-3
CCNC(=O)CSc1nnc(CN2CCCCCC2=O)n1-c1ccccn1,42,136,109,i,1.1,nt,0
Cc1ccn(CCC(=O)O)n1,nt,nt,98,i,0.95,nt,8
O=C(CN1C2=NCCN2c2ccccc21)c1ccco1,3,95,102,i,0.86,-2.5,-6
O=C(O)C1CCN(C(=O)c2csc(-c3ccc4c(c3)CCO4)n2)CC1,nt,nt,96,i,1,nt,nt
CC(C)(C)Cc1nnc(NC(=O)Cc2ccc([N+](=O)[O-])cc2)s1,27,128,72,i,0.84,-0.7,-12
CCN(CC)c1ccc(NC(=O)Nc2ccc(C(C)=O)cc2)cc1,-2,135,99,i,0.88,-2.6,-1
CCOC(=O)c1ccc(CNC(=O)c2cc(C(C)(C)C)oc2C)o1,-260,37,100,i,0.97,-1.5,-3
O=c1nc(SCc2c(F)cccc2Cl)nc(-c2ccccc2)[nH]1,nt,nt,98,i,1.1,nt,nt
COCC(=O)Nc1nnc(COc2ccccc2)s1,36,82,101,i,0.98,1.4,1

# No enrichment for hits, and some 1.3% of all compounds hit somewhere here.
